Bioassay records (PubChem BioAssay)
Sa RN4220 lethal: growth inhibition of S. aureus RN4220, primary screen, OD600. 16 h. 330,000 compounds, 0.33% hits. inhibition, % (test concentration not listed);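 active = z-score of -3 or lower and OD600 up to 0.18 on both plates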;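 note: plate controls were untreated cells for no effect and reference antibiotic for full effect; stock transfer was 100 nL into about 80 µL; one replicate is shown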
ugtP null kill: growth inhibition of ugtP-null S. aureus, primary screen, RN4220 ugtP deletion, OD600 | growth inhibition, % (concentration not given with the values) | 16 h; some inactives read as strong as hits | 330,000 compounds, 0.54% hits;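 active = z-score under -3 and OD600 up to 0.15 on both plates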;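 note: plate controls were untreated wells for no effect and antibiotic for full effect; wells of about 80 µL received 100 nL stock; the first replicate is given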
PrP UTR inh: inhibition of PrP 5' UTR reporter expression | cell-based PrP 5' UTR mRNA reporter, plate reader | 340,000 compounds, 0.35% hits | inhibition, % (no concentration beside the values);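 active = every replicate at 50% or more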;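 note: 0 = median of the neutral control wells; tested in H4 reporter cells; numbers are from one replicate; inactives centre near -14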
Mtb hypoxia rep: PubChem AID 1159583 | M. tuberculosis hypoxia-regulated fluorescent reporter, fluorescence | fluorescence inhibition, % (test concentration not listed) | 300,000 compounds, 0.1% hits;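 active = 35 to 45% if threefold the growth effect, above 45% if 1.5-fold the growth effect; inactive = the rest, general growth blockers included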;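 note: wells of about 50 µL received 100 nL stock; 0% = vehicle wells and 100% = reference inhibitor wells; whole bacteria with a GFP reporter of the hypoxia response; strong numbers were not always called active; many hits fall short of the cut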
Autofluor counter: counter-screen for toxin protease inhibitors: compound fluorescence; compound autofluorescence counterscreen, microsphere flow cytometry; hits give high values; fluorescence intensity (test concentration not listed); 360,000 compounds, 3.1% hits;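 active = at least 3 SD above the mean of all compounds, about 16000 in these data; inconclusive = too few beads counted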;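 note: 100 nL of 1 mM stock went into each well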
BJeLR viability: MLPCN primary cell-based screen for lethality selective to Ras in HRASV12 cells; BJeLR (HRASV12) viability, CellTiter-Glo ATP luminescence, 48 h; reference of the scale not given here; inhibition, % (concentration not given with the values); 300,000 compounds, 0.17% hits; AID 1554, 2009;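 active = replicate mean above 50%; inconclusive = above 50% but judged a plate artefact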;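 note: 50 nL library stock added to about 25 µL; numbers are from one replicate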
Mtb hypoxia rep growth: recorded beside Mtb hypoxia rep, whose call it bears; growth inhibition, %; measured here: M. tuberculosis growth (absorbance);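 0% = vehicle and 100% = reference antibiotic; read after six days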
Active calls of the source: *; u = inconclusive; x = not tested or not shown; & = joins results of further samples.

SMILES	Sa RN4220 lethal	Mtb hypoxia rep growth	BJeLR viability	Mtb hypoxia rep	ugtP null kill	Autofluor counter	PrP UTR inh
COc1c(C)cc(C(=O)C2CCCN(S(=O)(=O)N(C)C)C2)cc1C (stereo unspecified)	2.9	-3	2	10	2	4301	-3
COc1ccc(CC(=O)NCc2n[nH]c(=S)n2-c2ccc(Br)cc2)cc1	0.5	-9	-3	5	0	3345	-25
CC1CN(C2=N/C(=C/c3ccc4c(c3)OCO4)C(=O)N2)CC(C)O1 (stereo unspecified)	2.0	12	-11	6	2	4270	-30
O=C(N/C(=C\c1cccc(Br)c1)C(=O)N1CCOCC1)c1ccco1	3.2	10	-10	9	15	2885	-7
COc1cccc(NC(=O)CN(C)C(=O)CNC(=O)c2ccccc2F)c1	-7.7	-3	-6	4	0	3512	-21
CC(C)(C)c1ccc(C(=O)c2c[nH]c(C(=O)NCc3ccco3)c2)cc1	3.8	x	2	x	7	2827	-23
CC(C)(C)Cc1nnc(NC(=O)CCc2ccccc2)s1	-3.0	0	-18	-2	-2	2957	-33
O=C(O)CCSc1nc2ccccc2n1-c1ccccc1	-2.2	8	-6	11	11	3700	-21
Cc1nn(CC(=O)NCc2ccc(OC(C)C)cc2)c(=O)c2cc3occc3n12	2.2	2	3	-4	1	x	x
O=C(NCc1nc2ccccc2[nH]1)C1=CC(c2ccc(C(F)(F)F)cc2)CC(OCCCCO)O1 (stereo unspecified)	1.1&1.5	10&9	x	13&14	9&9	x	x
COc1ccc(C(=O)C2CCCN(Cc3cnc(N4CCOCC4)s3)C2)c(OC)c1 (stereo unspecified)	2.0	-8	4	-3	2	3141	-12
COc1ccc(CC(=O)NNC(=O)c2ccc(Br)s2)cc1OC	0.7	9	x	10	2	3433	-14
COc1cc(C(=O)O)nc2ccc([N+](=O)[O-])cc12	3.6	17	2	12	7	4189	-16
Cc1cc(C(F)F)n2nc(C(=O)Nc3ccccc3Br)nc2n1	4.2	9	-1	9	-3	20530*	-10
O=C(C1CCC1)N1CCc2cc(S(=O)(=O)NCCN3CCN(c4ccccc4F)CC3)ccc21	1.9	x	5	x	3	3515	-28
CCOC(=O)c1csc(NC(=O)c2cc(=O)c3ccccc3o2)n1	10.0	6	-10	-3	-11	3359	-25
Cc1cccc(Nc2ncc3c(n2)CC(C)CC3=O)c1 (stereo unspecified)	2.5	x	-6	x	-2	4674	-46
Cc1ccc(NC(=O)CSc2nc(-c3ccco3)cc(C(F)(F)F)n2)cc1C	9.8	0	13	-5	14	17763*	-16
COc1cc(-c2cc(C(=O)OCC(=O)NC3CC3)c3ccccc3n2)cc(OC)c1OC	2.4	8	x	2	3	4096	-11
CC(CNC(=O)C1CCCCC1C(=O)O)c1ccccc1 (stereo unspecified)	-0.8	14	1	6	8	22629*	-8
O=C(CSc1nnc(NC2CCCCC2)s1)Nc1ccc(N2CCOCC2)cc1	1.1	8	-7	3	-3	22057*	7
CC1CCN(CC(=O)Nc2ccc(S(=O)(=O)N3CCCC(C)C3)cc2)CC1 (stereo unspecified)	2.5	7	-1	18	4	3576	-10
Cc1ccccc1C=NNc1ccnc2cc(Cl)ccc12	98*	0	x	16	99*	x	x
O=C(NCc1ccc2c(c1)OCO2)c1cc(-c2ccccc2)c(N2CCOCC2)s1	-7.0	6	7	3	-4	5591	-23
CC(C)Oc1ccc(C(=O)NCCNC(=O)c2ccco2)cc1	2.9	1	-1	-10	6	3694	-17
O=C(NC1CCCC1)C(c1ccco1)N(C(=O)c1ccco1)c1ccc(F)cc1 (stereo unspecified)	2.3	-1	-5	3	3	6081	-17
CCOC(=O)c1[nH]c2ccccc2c1NC(=O)C1CCCC1	2.3	0	-1	-6	10	4946	-16
COc1ccccc1N1CCN(C(=O)N2CCOCC2)CC1	2.9	15	8	9	5	23262*	-24
CCc1ccc(-n2c(SCC(=O)c3ccc4c(c3)NC(=O)CO4)nc3ccccc3c2=O)cc1	3.6	6	2	-5	2	3921	-3
COc1ccc(N=c2oc3c(OC)cccc3cc2C(=O)NCc2ccco2)c(OC)c1	2.1	5	-10	1	-6	21143*	-6
CCOc1ccccc1/C=c1\sc2ncnn2c1=O	x	x	2	x	x	21270*	-9
CC(=O)Nc1ccc(S(=O)(=O)N2CCN(C(C)CCc3ccccc3)CC2)cc1 (stereo unspecified)	2.5	3	-7	1	14	4559	6
CN(Cc1ccccc1)C(=O)c1[nH]cnc1C(=O)NC1CCN(C(=O)OC(C)(C)C)CC1	7.2	9	x	-2	3	5153	-6
CN1CCN(C(=O)c2cc(=O)c3cc(Cl)ccc3o2)CC1	0.4	5	-1	2	8	3292	-5
Oc1c(Br)cc(C2N=C(c3ccccc3)NO2)cc1Br (stereo unspecified)	48	7	-6	3	37	3654	-5
Cc1ccc2c(c1)-c1c(ssc1=S)C(C)(C)N2C(=O)c1ccco1	3.0	3	-10	-4	1	7232	-11
CCC(Sc1nc2ccsc2c(=O)n1Cc1ccc(C(=O)O)cc1)C(=O)Nc1ccc(C)c(Cl)c1 (stereo unspecified)	10	0	-8	-3	-6	5360	-8
COc1ccc(S(=O)(=O)N2CC(C)OC(C)C2)cc1C(=O)N1CCCCC1 (stereo unspecified)	2.8	10	4	3	3	u	-9
CCc1ccc(N(C(=O)CCC(=O)Nc2cc(C)on2)C(C(=O)NC(C)(C)C)c2ccc(OC)cc2)cc1 (stereo unspecified)	4.7	16	-12	-4	11	3818	-12
CC(C)(C)C(=O)c1cn(CC(=O)NCc2ccco2)c2ccccc12	6.7	11	11	19	2	4214	-50
O=C(O)C(Cc1ccccc1[N+](=O)[O-])N1C(=O)c2ccccc2C1=O (stereo unspecified)	5.0	17	x	9	6	3022	-12
CCOC(=O)/C(N=Nc1sc(C(=O)OC)c(C)c1C(=O)OCC)=C(\O)CCl	3.5	7	-1	12	0	2580	-17
C=Cn1ccnc1P(=S)(c1ccccc1)c1nccn1C=C	5.1	-1	-5	-4	2	2420	-8
COc1ccc(OC)c(/C=N/N2CCN(c3ccc(Cl)cc3)CC2)c1	x	x	6	x	x	3495	-6
COc1cc(CC(NC(C)=O)C(=O)NC2CCN(C(=O)c3cc(OC)c(OC)c(OC)c3)CC2)cc(OC)c1 (stereo unspecified)	1.5	4	1	2	-2	3212	-21
CCN1CCN(C(=O)C2CCN(Cc3nc(-c4cccc(Cl)c4)oc3C)CC2)CC1	2.2	x	3	x	-3	6201	-15
COc1cc(/C=C(/C#N)C(=O)NCCCc2ccccc2)ccc1OCC(=O)O	2.2	0	-5	0	1	3935	9
CC1CCCN(Cc2cccc(Oc3ccccc3)c2)C1 (stereo unspecified)	6.2	8	0	17	4	11116	-23
COC(=O)C1=C(c2cccc(C#N)c2)CC2CCC1N2C(=O)NCc1cccc2ccccc12 (stereo unspecified)	-9.8	-8	x	-8	-16	x	x
Cc1ccc(S(=O)(=O)N(C)CC(O)Cn2c3ccccc3c3ccccc32)cc1 (stereo unspecified)	2.8	12	7	16	15	2796	-5

Continued:
SMILES	Sa RN4220 lethal	Mtb hypoxia rep growth	BJeLR viability	Mtb hypoxia rep	ugtP null kill	Autofluor counter	PrP UTR inh
CCS(=O)(=O)c1ccc2oc(Nc3cc(C)cc(C)c3)nc2c1	2.0	2	-6	12	9	20341*	-61
CCn1cc(CNC(=O)c2cc(-c3ccccc3OC)nc3ccccc23)c(C)n1	-2.9	x	-5	x	-3	4947	15
O=C(COC(=O)CCSc1ccc(Cl)cc1)NCCc1ccccc1	5.1	9	19	14	14	2519	-24
Cc1ccccc1C(=O)Nc1cccc(NC(=S)NC(=O)c2cccs2)c1	41	1	-3	-4	4	u	-1
COC(=O)c1ccccc1NC(=O)C1CCCN(S(=O)(=O)c2ccccc2)C1 (stereo unspecified)	4.3	5	2	4	7	19578*	-14
Oc1ccccc1N=N/C(=N/Nc1ccccc1O)c1ccccc1	x	x	-1	x	x	4230	-16
O=C(NN=Cc1ccco1)c1cc(Br)ccc1OCc1ccccc1	2.0	6	x	4	0	x	x
COc1ccc(-n2nc(C(=O)NCC(=O)N3CCCC3)c3ccccc3c2=O)c(OC)c1	0.2	-7	-6	-8	-1	4367	6
CCOc1ccc(OCCC(=O)OCC(=O)Nc2cc(S(=O)(=O)N3CCOCC3)ccc2C)cc1	0.2	1	4	-2	-1	5839	-16
COC(=O)C1=C(CS(=O)(=O)c2ccccc2)NC(=O)NC1c1ccc(OC)c(OC)c1 (stereo unspecified)	4.5	-8	3	5	12	6325	-18
O=[N+]([O-])c1cccnc1Oc1cccnc1	3.3	3	1	14	1	4431	-16
CCOc1ccc2[nH]c(=O)c(CN(Cc3ccc(F)cc3)C(=O)c3ccco3)cc2c1	5.7	12	31	7	-16	2775	-5
COC(=O)c1ccc(NC(=O)c2ccc(F)cc2)o1	-4.5	x	15	x	-5	2680	-34
Clc1ccc(Oc2nc(Oc3ccc(Cl)cc3)nc(N3CCOCC3)n2)cc1	-2.2	5	-2	12	14	8372	-11
COc1cccc(/C=C/C(=O)Oc2ccc(C(=O)c3ccc(F)cc3)cc2)c1	2.2	7	-6	2	8	2638	-1
O=C(NCCOc1ccccc1)C1CCCN1C(=O)c1cccs1 (stereo unspecified)	5.9	9	2	10	-3	3973	-16
Cc1cccc(NC(=S)NN=Cc2ccc(Cl)c([N+](=O)[O-])c2)c1	1.1	4	x	-6	-8	x	x
Nc1c(-c2cccc(Cl)c2)cnn1-c1ccccc1	13	-4	-1	-5	0	4179	-40
CCCc1nnc(NC(=O)CCC(=O)N2CCN(Cc3cc(F)ccc3OC)CC2)s1	8.2	-4	-4	9	0	x	-18
CCOC(=O)CNC1CC(=O)N(c2ccc(Br)cc2)C1=O (stereo unspecified)	7.5	-4	-12	3	5	3053	-1

Record cards, as listed above. Order of values: Sa RN4220 lethal, Mtb hypoxia rep growth, BJeLR viability, Mtb hypoxia rep, ugtP null kill, Autofluor counter, PrP UTR inh
Results for CCCc1nnc(NC(=O)CCC(=O)N2CCN(Cc3cc(F)ccc3OC)CC2)s1 = 8.2, -4, -4, 9, 0, x, -18
Results for COC(=O)c1ccc(NC(=O)c2ccc(F)cc2)o1 = -4.5, x, 15, x, -5, 2680, -34
Results for O=C(NCCOc1ccccc1)C1CCCN1C(=O)c1cccs1 (stereo unspecified) = 5.9, 9, 2, 10, -3, 3973, -16
Results for Cc1cccc(NC(=S)NN=Cc2ccc(Cl)c([N+](=O)[O-])c2)c1 = 1.1, 4, x, -6, -8, x, x

(next part)
SMILES	Sa RN4220 lethal	Mtb hypoxia rep growth	BJeLR viability	Mtb hypoxia rep	ugtP null kill	Autofluor counter	PrP UTR inh
CC/C(=N/Nc1ccccc1)c1cnnc(-c2ccccc2)n1	x	x	2	x	x	8831	-15
Nc1cccc(NP(=O)(c2ccccc2)c2ccccc2)c1	1.9	-3	-17	0	10	6012	-18
Cc1ccc(-n2nc(C)cc2NC(=O)CC#N)cc1	1.1	5	17	15	5	4124	-3
CCOC(=O)c1c(CSc2ccccc2)n(C)c2cc(Br)c(OCC(O)CNC(CO)(CO)CO)cc12 (stereo unspecified)	-1.5	3	-3	3	-13	9043	-4
CCOc1ccc(S(=O)(=O)Nc2cc(OC)c(OC)cc2C(=O)O)cc1	1.0	1	-1	11	2	8984	-12
COC(CNC(=O)c1cnn2c(C)c(Cc3ccccc3)c(C)nc12)OC	3.6	0	-2	0	3	3312	-5
CCn1ncc(C=NNC(=O)COc2cc(C)cc(C)c2)c1C	3.1	-1	x	10	12	x	x
O=C(CCc1nnc(CCC2CCCCC2)o1)NCCn1cccn1	2.5	25	4	18	9	3316	-28
C(=Nn1cnnc1)c1ccccn1	11	13	x	1	-13	x	x
Cc1ccc(Nc2cc(C)nc(N3CCOCC3)n2)cc1	4.0	x	-3	x	-5	2828	-13
COc1ccc(CCNC(=O)c2cc3c(C)nccc3[nH]c2=O)cc1OC	1.2	7	7	0	-1	4528	1
O=C(CCn1nnc2ccccc21)Nc1nnc(COc2ccccc2F)s1	6.3	7	-10	3	2	3701	-26
O=c1[nH]ncc(NCCCO)c1Cl	-1.6	-4	4	3	8	3183	-31
